RVFV N-RNA FP: inhibitors of Rift Valley Fever Virus nucleocapsid-RNA interaction. P21700. RVFV N-RNA binding, fluorescence polarization; stronger effect = lower value. % bound, % (test concentration not listed). actives 0.1% (n = 20,000). AID 651828;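 active = between 0 and 58% in either replicate with normal brightness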;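 note: 100 nL library stock added to about 12 µL; 100% = protein and probe without compound and 0% = probe alone; numbers are from one replicate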
Target sequence (P21700 whole entry, looked up): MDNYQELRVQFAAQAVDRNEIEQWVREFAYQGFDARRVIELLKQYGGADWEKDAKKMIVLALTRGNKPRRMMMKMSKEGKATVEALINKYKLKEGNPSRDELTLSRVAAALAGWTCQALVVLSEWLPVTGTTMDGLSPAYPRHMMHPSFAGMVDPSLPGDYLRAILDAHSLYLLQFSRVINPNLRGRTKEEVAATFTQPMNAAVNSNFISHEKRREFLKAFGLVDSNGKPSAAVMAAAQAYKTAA
The depositor's hits bear a star; & = joins results of further samples.

compound	RVFV N-RNA FP
N#C/C(=C\c1ccc(O)c(O)c1)C(=O)NCCCNC(=O)/C(C#N)=C/c1ccc(O)c(O)c1	89
O=C(Nc1ccccc1)N1CCN(c2nc(-c3ccccc3)ns2)CC1	90
Fc1ccc(-c2nc3n(n2)Cc2ccccc2-3)cc1	98
O=C1NC(=O)C(c2ccccc2)C(=O)N1	87
CCN(CC)Cc1c(O)ccc2c1O/C(=C\c1ccccc1Cl)C2=O	51*
CC(C)=NNC(=O)c1cccn1C	96
C=CCn1cnc2c(c1=O)c1nc3ccccc3nc1n2-c1cccc(Br)c1	89
Cc1nc2ccc(NC(=O)NC(=O)c3ccccc3Cl)cc2o1	92
O=C(Nc1ccc2c(c1)C(=O)NC2=O)C1=COCCO1	103
Cc1ccccc1COc1ccc2oc(-c3ccco3)cc(=O)c2c1	107
CSc1ccc(OC(=O)Nc2ccc(Cl)cc2)cc1	97
CCOc1ccc(CC(=O)O)cc1OCC	102
O=C1CSc2ccccc2N1Cc1n[nH]c(=S)n1Cc1ccccc1	98
CC(Sc1nc(N)cc(N)n1)C(=O)Nc1cccc(Cl)c1 (stereo unspecified)	92
O=c1c(C=Nc2cc(Cl)ccc2O)c(O)n(C2CCCCC2)c(=O)n1C1CCCCC1	85
Nc1ccc(OC(F)(F)C(F)F)c(N)c1	105
c1ccc2c(OCc3nn[nH]n3)cccc2c1	91
CN(c1ccc(O)cc1)c1nc(O)c(C2=c3ccccc3=NC2=O)s1	93
O=C(Nc1ccc(N2CCN(Cc3ccccc3Cl)CC2)cc1)c1ccco1	92
CCN(CC)C(=O)/C=C/c1cccc2ccccc12	101

Going on with the list:
compound	RVFV N-RNA FP
CCN(CC)CCOc1ccc(Nc2ncc3cc(-c4c(Cl)cccc4Cl)c(=O)n(C)c3n2)cc1	104
CS(=O)(=NS(=O)(=O)c1ccccc1)c1ccccc1 (stereo unspecified)	90
CC(C)(C)c1oc(C(=O)O)cc1COCC(F)(F)F	101
Oc1ccc2cc(Br)ccc2c1	102
COCCOc1nc2ccccc2nc1C	93
c1ccc(-c2nonc2-c2ccccc2)cc1	93
NC(=O)Cn1cnc2c(cnn2-c2ccc(Cl)cc2)c1=O	96
N#C/C(=C\c1ccccc1)C(=O)C1CC1	93
CC(Oc1ccccc1F)C(=O)N(C)Cc1ccccc1 (stereo unspecified)	101
S=c1[nH]nc(-c2ccncc2)n1CCc1ccccc1	101&99
COC(=O)c1ccc(C(=O)OC)c(N2C(=O)CSCC2=O)c1	99
O=C(c1cnc2n(c1=O)CCS2)N(C1CCCCC1)C1CCCCC1	95
COc1ccc(C(=O)Nc2ccc(S(=O)(=O)N3CCCCC3c3cccnc3)cc2)cc1OC (stereo unspecified)	90
COc1ccc2[nH]cc(CCN)c2c1	95&100
CC(C)NS(=O)(=O)c1ccc(OCC(=O)N(C)Cc2ccccc2)cc1	95
CC1CCCCN1C(=O)/C=C/c1ccccc1 (stereo unspecified)	96
CC(=O)Nc1ccc(NC(=O)COCC(=O)O)cc1	92
Cc1onc(-c2ccccc2Cl)c1C(=O)c1ccccc1	98
CCOC(=O)N1CCC(NC2C3CC4CC(C3)CC2C4)CC1 (stereo unspecified)	91
CS(=O)(=O)NCC(c1cccs1)S(=O)(=O)c1ccccc1 (stereo unspecified)	92

Remaining list, next part:
compound	RVFV N-RNA FP
O=C(OCc1ccc2c(c1)OCO2)c1cccc(S(=O)(=O)N2CCCC2)c1	90
O=C(O)c1coc(COCC(F)(F)F)c1	91
O=C(/C=C/Nc1cccc(C(F)(F)F)c1)c1ccco1	93
CCOC(=O)N1CCC(NC(=O)c2cnc3n(c2=O)CCS3)CC1	99
C=CCn1c(Cc2nnc(SCC(=O)c3ccccc3)n2CC=C)nnc1SCC(=O)c1ccccc1	97
COc1cc(C(=S)N(C)C)ccc1O	96
CC(C)c1ccc(NC(=S)N=C(N)N)cc1	94
O=C(c1cccs1)N1CCN(C(=O)C2CCCCC2)CC1	96
S=c1nc(-c2ccco2)[nH][nH]1	102
Cn1c(=O)c2[nH]c(N3CCCC3)nc2n(C)c1=O	91
NC(=O)CS(=O)(=O)C(c1ccccc1)c1ccccc1	94
COC(=O)CSc1nccc(=O)[nH]1	90
CC1=C(C(=O)Nc2ccccc2)C(c2ccc(C)cc2)N=C(Nc2nc3ccccc3o2)N1 (stereo unspecified)	100
CC(C)CC(NC(=O)CC12CC3CC(CC(C3)C1)C2)C(=O)N1CCOCC1 (stereo unspecified)	89
COc1cc(NC(=O)C(C)C)ccc1NC(=O)C(C)C	92
C#CCSc1nnnn1-c1cccc(Cl)c1	86
CCN(CC)C(=O)CSc1nc(N)c2c3c(sc2n1)COC(C)(CC)C3 (stereo unspecified)	90
CC(C)(C)c1ccc(NC(=O)CN2CCOCC2)c(NC(=O)c2ccco2)c1	92
O=C(CSc1n[nH]c(-c2ccco2)n1)N1c2ccccc2Sc2ccccc21	93
C=C(C)C1Cc2c(C)nn(S(=O)(=O)c3ccc(C)cc3)c2C1 (stereo unspecified)	92

An excerpt from above in order of molar mass, smallest number first:
compound	RVFV N-RNA FP
COC(=O)CSc1nccc(=O)[nH]1	90
O=C(O)c1coc(COCC(F)(F)F)c1	91
Cn1c(=O)c2[nH]c(N3CCCC3)nc2n(C)c1=O	91
C#CCSc1nnnn1-c1cccc(Cl)c1	86
O=C(/C=C/Nc1cccc(C(F)(F)F)c1)c1ccco1	93
CCN(CC)C(=O)CSc1nc(N)c2c3c(sc2n1)COC(C)(CC)C3 (stereo unspecified)	90
C=CCn1c(Cc2nnc(SCC(=O)c3ccccc3)n2CC=C)nnc1SCC(=O)c1ccccc1	97

Next records follow:
compound	RVFV N-RNA FP
CS(=O)(=O)c1ccccc1-c1nnc(NC(=O)c2cccc(N3C(=O)CCC3=O)c2)o1	98
O=CN1N=C(c2ccccc2)CC1c1ccccc1 (stereo unspecified)	94
COc1ccccc1CNC(=O)N(C)C	99
CCOC(=O)c1ncn2c1CN(C)C(=O)c1cc(F)ccc1-2	101&97&92
O=C(N/N=C/c1ccccc1)N/N=C/c1ccccc1	102
O=c1[nH]cc(S(=O)(=O)N2CCCCCC2)c(=O)[nH]1	104
CCC(=O)NC(=S)Nc1ccc(NC(=O)c2ccc(Br)o2)cc1	90
Cn1c(=O)c2c(SCC(=O)NCCc3ccccc3)nc(C3CC3)nc2n(C)c1=O	100
Cc1cccn2cc(CNS(=O)(=O)c3ccccc3F)nc12	96
CN(Cc1ccccc1)C(=O)c1ccc(Br)cc1	102
CCOc1ccc(OCCCn2cnc3ccccc3c2=O)cc1	96
CCN(C(=O)C(C)Oc1ccccc1)C1CCCCC1 (stereo unspecified)	94
CCSc1nnc(NC(=O)c2ccccc2)s1	96
CCO/C=N/c1c(C#N)c(CC#N)nn1-c1ccccc1	97
CCOC(=O)/C(C#N)=C/Nc1ccn[nH]1	97
CNS(=O)(=O)Cc1ccc2[nH]cc(CCN(C)C)c2c1	99&90
Cc1ccc(-c2noc(-c3ccc(Oc4cc(Cl)cc(Cl)c4)o3)n2)cc1	95
O=C(c1cccs1)N(c1ccccc1)C1C=CS(=O)(=O)C1 (stereo unspecified)	94
COc1ccc(C(=O)NCC(=O)c2ccccc2)cc1	91
CN(CCC#N)S(=O)(=O)c1cn(C)c(=O)n(C)c1=O	96

Remaining list, next part:
compound	RVFV N-RNA FP
Cc1ccc(N2C(=O)CC(NCc3ccc(S(N)(=O)=O)cc3)C2=O)cc1Cl (stereo unspecified)	90
CCC(C)NC(=O)c1cnc2n(c1=O)CCS2 (stereo unspecified)	91
CC1=C(NS(=O)(=O)c2cccc(C(=O)O)c2)CN(c2ccccc2)N1C	94
COc1cccc(OCC(=O)Nc2cccc(C(=O)O)c2C)c1	97
CCOC(=O)C1CCN(c2ccccc2CN2CCN(c3ncc(C(F)(F)F)cc3Cl)CC2)CC1	99
O=C1C(=O)N(CCCN2CCOCC2)C(c2ccccc2F)/C1=C(\O)c1ccc2c(c1)OCCO2 (stereo unspecified)	99
CN1CCN(c2cnn(-c3ccccc3)c(=O)c2Br)CC1	96
CCN(CC)c1ccc(C(=O)Nc2nc(-c3ccc(C)o3)cs2)cc1	89
COC(=O)C(C)Sc1nnc(Cc2cc(=O)[nH]c(=O)[nH]2)n1-c1cccc(C)c1 (stereo unspecified)	93
CC(CNC1CCN(C)CC1)c1ccccc1 (stereo unspecified)	91
S=C(Nc1ccc(Oc2ccccc2)cc1)NN1CCOCC1	88
COCC(=O)Nc1ccc(C(C)C)cc1	95
CCn1c(O)c(C=NCCc2c[nH]c3ccccc23)c(=O)[nH]c1=O	97
C=CCOc1ccc(C=C(C#N)C#N)cc1	93
C=CC[C@H](N)C(=O)O	92
CCN(CC)c1ccc(C=C(C#N)C#N)c(OC(C)=O)c1	111
COc1cc(OC)cc(C(=O)NCCSc2ccccc2)c1	95
COc1ccc(NC(=O)CCn2c(=O)oc3ccccc32)cc1	96
Cc1onc(-c2ccccc2Cl)c1C(O)c1ccc(F)cc1 (stereo unspecified)	95
OC1(Cc2ccccc2)CCCCC1	107

Not a retest: 2 of the compounds above.
compound	RVFV N-RNA FP
CCN(CC)c1ccc(C=C(C#N)C#N)c(OC(C)=O)c1	111
COc1cc(OC)cc(C(=O)NCCSc2ccccc2)c1	95

Next part:
compound	RVFV N-RNA FP
CCOc1ccc(N=Cc2sc3ccccc3c2O)cc1	111
O=C(Nc1ccc(Cl)cc1C(=O)Nc1cccc(Cl)c1)c1ccco1	92
CCn1c(Sc2ccc(N)cc2Cl)nc2ccccc21	95
CC1(C)S[C@@H]2[C@H](NC(=O)COc3ccccc3)C(=O)N2[C@H]1C(=O)O	96
CC(C)(C)NC[C@H](O)c1ccc(O)c(CO)c1	99
COc1ccc(OC)c(NC(=O)c2cnc3sccn3c2=O)c1	98
COc1ccccc1C(=O)Nc1ccc(S(=O)(=O)NC(C)C)cc1	97
Cc1ccc(NC(=O)COc2cccc3c2CCN(Cc2cccnc2)C3=O)c(C)c1	98
CC12CCC(C(=O)Nc3ccccc3)(OC1=O)C2(C)C (stereo unspecified)	93
Cn1c(=NC(=O)C2CC2)sc2ccc3ccccc3c21	97
CC(C)C[C@H]1C(=O)N2CCC[C@H]2[C@]2(O)O[C@](NC(=O)[C@@H]3C=C4c5cccc6[nH]c(Br)c(c56)CC4N(C)C3)(C(C)C)C(=O)N12 (stereo partly specified)	97
CCCc1cnc(N2CCN(C(=O)c3cc(C)on3)CC2)nc1	100
CCOc1cc(C(NC(=O)c2ccco2)NC(=O)c2ccco2)ccc1OC	93
Cc1ccc(C23CC4CC(CC(C(=O)NN5CCN(CCO)CC5)(C4)C2)C3)cc1	98
O=C1c2c(O)cc(O)cc2O[C@H](c2ccc(O)c(O)c2)[C@@H]1O	92
CCC(=O)Nc1cc(NC(=O)CC)cc(C(=O)O)c1	94
CN(C)c1ccc(C(=O)Nc2ccc(-c3nc4ccccc4o3)cc2)cc1	93
C[N+]1(C)[C@@H]2CC(OC(=O)C(O)(c3cccs3)c3cccs3)C[C@H]1[C@@H]1O[C@@H]12 (stereo partly specified)	96
Cc1cccn2cc(CNC(=O)c3ccco3)nc12	97
COc1cc(OC)c(C(=O)CCCN2CCCC2)c(OC)c1	95

Next part
compound	RVFV N-RNA FP
O=C(O)/C=C/C(=O)N1CCN(c2cccc(Cl)c2)CC1	112
C/C(=N/NC(=O)c1ccccc1)C1C(=O)c2ccccc2C1=O	94
O=c1[nH]c(=O)n([C@H]2C[C@H](O)C(CO)O2)cc1I (stereo partly specified)	105
Cc1ccc(S(=O)(=O)c2c(C)nn(-c3ccccc3)c2OC(=O)c2ccco2)cc1	100
CC(C)c1ccc(NC2=CC(=O)CCC2)cc1	95
Nc1ncnc2c1nc(Sc1ccc(Cl)cc1)n2C1OC2COP(=O)(O)O[C@@H]2[C@@H]1O (stereo partly specified)	92
O=c1nc2n3ccccc3ncc-2s1	100
CC(=O)Nc1ccc(C(=O)Nc2ccc(-c3nc4ccccc4o3)cc2)cc1	99
CC(O)CN(CC(C)O)CC1CC=CCC1 (stereo unspecified)	92
CCCCc1cc(=O)oc2cc(OC(=O)c3ccco3)ccc12	112
O=C(O)COCC(=O)Nc1ccc(Oc2c(Cl)cccc2Cl)nc1	94
C=CCNC(=O)/C(=C/c1ccccc1)c1ccccc1	95
O=C(C1=C(O)C(=O)N(CCc2ccccc2)C1c1ccncc1)c1cc2ccccc2o1 (stereo unspecified)	100
O=C(Oc1coc(CSc2ncccn2)cc1=O)c1ccc(S(=O)(=O)N2CCCC2)cc1	97
CCCSc1ncccc1C(=O)Nc1c(-c2ccccc2)noc1C	98
CC(N)C12CC3CC(CC(C3)C1)C2 (stereo unspecified)	100&93
CC1(C)S[C@@H]2[C@H](NC(=O)[C@H](C(=O)O)c3cccs3)C(=O)N2[C@H]1C(=O)O	101
CCCOc1ccc(C2/C(=C(/O)c3ccc(C)c(F)c3)C(=O)C(=O)N2Cc2ccco2)cc1 (stereo unspecified)	99
CC(=O)NC(=O)/C(C#N)=C/N1CCOCC1	87
COC(=O)C1(OC)COc2ccccc2O1 (stereo unspecified)	95

Following part.
compound	RVFV N-RNA FP
NC(=O)NC(=O)Nc1ccc(Cl)cc1	94
CCOC(=O)N1CCN(C(=S)Nc2cc(OC)c(OC)cc2C(=O)OC)CC1	93
CC(=O)N1CN2CN(C(C)=O)CC(C(=O)c3ccccc3)(C2)C1	98
CC1(C)CC(=O)C2=C(C1)N(Cc1cccnc1)C(=O)NC2(C(F)(F)F)C(F)(F)F	98
Cc1ccc(N/C=C/C(=O)c2ccc(C)o2)c(O)c1	92
OC(COc1ccc(Br)cc1)CN1CCOCC1 (stereo unspecified)	99
COC(=O)Cc1nc(NC(=O)c2ccc(OC)cc2)sc1C	95

High-throughput results as filed in PubChem.

A portion of the library; rates above refer to the full screens.
